T cruzi inh – T. cruzi replication inhibition | AID 1885 | T. cruzi beta-gal in NIH3T3, luminescence, 90 h | inhibition, % (test concentration not listed) | hit rate 1.4% among 300,000;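 active = mean inhibition across valid replicates above about 55%, limit read from the data; inconclusive = mean below that limit but half or more replicates reach it; inactive = mean below it, under half of replicates reach it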;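 also: signal also drops with host cell toxicity which is not excluded here; 0% = plate median of DMSO wells and 100% = zero luminescence signal; higher percent means less beta-gal luminescence so fewer parasites; stock transfer was 50 nL into about 50 µL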
E coli growth – inhibitors of Escherichia coli growth; OD600, 23 h; hits give low values; OD600 absorbance (concentration not given with the values); hit rate 0.21% among 330,000;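 active = OD600 absorbance below the run mean of sample wells minus 3.6 SD, in any replicate, cut at about 0.56 in these data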;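 also: stock transfer was 300 nL into about 60 µL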
A1 inh – inhibitors of the anti-apoptotic protein A1, read as caspase activation; caspase activation, % (test concentration not listed); MEF A1-2A-BIM cells, Caspase-Glo 3/7 luminescence, 3 h; percent of clofoctol response, vehicle zero; hit rate 0.066% among 330,000; AID 2462;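 active = over half of replicate activation scores above 10%, or exactly half above 10 with the replicate mean above 10; inconclusive = replicate mean below 10 yet half the replicates above 10; inactive = over half of replicates below 10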;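 also: wells of about 30 µL received 50 nL stock; many hits fall short of the cut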
rRNA inh HTS – selective bacterial rRNA inhibition in E. coli | E. coli WT GFP vs humanized-ribosome RFP mutants, fluorescence, 24 h; hits give low values; DMSO median 0, no signal -100 | GFP signal change (wild-type ribosome), % (no concentration beside the values) | hit rate 1.6% among 350,000 | AID 720706;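 active = significant combined selectivity score with lowered wild-type GFP, culture density cut under 30%, mutant RFP and density less affected; inactive = any of these conditions unmet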; also: one replicate is shown; some compounds called inactive have numbers as strong as hits
UCH37 inh – human UCH37 deubiquitinating enzyme inhibition; purified proteasome/UCH37, Ub-AMC cleavage fluorescence; AID 588478; Q9Y5K5; inhibition, % (test concentration not listed); hit rate 0.33% among 330,000;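 active = mean of two replicates above 20%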;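 also: 0% = compound-free wells with enzyme and 100% = wells lacking proteasome; stock transfer was 100 nL into about 20 µL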
Target sequence (Q9Y5K5 whole entry, looked up): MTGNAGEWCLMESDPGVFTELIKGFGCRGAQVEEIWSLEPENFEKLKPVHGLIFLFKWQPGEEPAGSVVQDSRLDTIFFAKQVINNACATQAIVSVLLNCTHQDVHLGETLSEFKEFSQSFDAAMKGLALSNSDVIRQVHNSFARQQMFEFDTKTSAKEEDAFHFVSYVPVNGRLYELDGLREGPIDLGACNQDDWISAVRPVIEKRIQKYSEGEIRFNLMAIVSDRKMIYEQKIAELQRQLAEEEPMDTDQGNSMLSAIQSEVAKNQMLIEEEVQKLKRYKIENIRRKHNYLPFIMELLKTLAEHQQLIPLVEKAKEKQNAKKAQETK
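assay system = human UCH37 enzyme supplied as purified proteasome complex | amount = proteasome at 0.15 nM in the dispensed enzyme solution | schedule = 30 min compound-proteasome preincubation then 25 min substrate reaction, room temperature | measured by = fluorescence, ex 355 nm, em 460 nm | benchmarks = no-proteasome wells (full inhibition) and compound-free wells (no inhibition)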
Beta cell apopt – beta cell apoptosis inhibition; INS-1E cytokine-induced death, ATP luminescence, 48 h; percent of positive-control rescue, neutral wells zero; hit rate 0.8% among 300,000; protection from apoptosis, % (test concentration not listed);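 active = all replicates at 75% or more, or half of them and the mean; inconclusive = half reach 75% but not the mean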;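 also: 0% = cytokine-treated negative control wells and 100% = positive control rescue; higher means more ATP so stronger rescue from cytokine killing; wells of about 40 µL received 100 nL stock; the first replicate is given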
FGF22 binding – binders of recombinant human FGF22 by thermal shift; Q9HCT0; AID 651658; hit rate 1.5% among 340,000; calls only at 9.99 µM; SYPRO orange fluorescence; percent of sucrose octasulfate shift, DMSO zero;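 active = melting point raised past a set limit in the mean and every replicate; inconclusive = no clear call; three in four hits are not shown here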
Target sequence (Q9HCT0 whole entry, looked up): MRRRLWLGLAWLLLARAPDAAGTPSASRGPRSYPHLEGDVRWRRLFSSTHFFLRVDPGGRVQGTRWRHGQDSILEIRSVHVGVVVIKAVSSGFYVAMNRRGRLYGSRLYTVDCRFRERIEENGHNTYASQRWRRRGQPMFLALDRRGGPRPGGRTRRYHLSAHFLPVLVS
AF4-AF9 inh – MLL-AF4/AF9 protein interaction inhibition. AID 651704. hit rate 0.47% among 350,000. inhibition, % at 10 µM. AlphaScreen, biotin-AF4 peptide binding to FLAG-AF9;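 active = every replicate reaching a set inhibition limit, whatever the replicate mean, cut at about 25% in these data; inconclusive = mean inhibition reaches that limit but some replicates miss it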;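 also: 0% = plate neutral control median and 100% = total signal loss; the record names both 10 and 1 µM as test concentration; the first replicate is given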
Target sequence (P42568 whole entry, looked up): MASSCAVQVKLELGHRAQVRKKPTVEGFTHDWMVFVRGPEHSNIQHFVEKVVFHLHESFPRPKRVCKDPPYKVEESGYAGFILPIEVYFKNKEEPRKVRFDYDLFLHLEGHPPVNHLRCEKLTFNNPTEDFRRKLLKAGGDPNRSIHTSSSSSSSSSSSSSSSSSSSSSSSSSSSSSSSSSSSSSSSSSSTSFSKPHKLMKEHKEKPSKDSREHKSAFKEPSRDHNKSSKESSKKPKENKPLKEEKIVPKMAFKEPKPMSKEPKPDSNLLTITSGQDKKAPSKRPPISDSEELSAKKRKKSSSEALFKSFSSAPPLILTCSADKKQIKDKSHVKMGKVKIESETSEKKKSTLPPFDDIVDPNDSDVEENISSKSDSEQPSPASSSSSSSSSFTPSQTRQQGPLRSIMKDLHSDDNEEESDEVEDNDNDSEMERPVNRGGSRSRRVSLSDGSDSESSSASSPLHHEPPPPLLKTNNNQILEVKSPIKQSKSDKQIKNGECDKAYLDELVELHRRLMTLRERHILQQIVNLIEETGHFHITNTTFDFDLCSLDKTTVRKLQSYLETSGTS
rRNA inh HTS OD600 – further read-out of rRNA inh HTS, marked with its call; OD600 change, %; measured here: OD600 growth;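 optical density of the mix in the first replicate; 0 = DMSO median and -100 = no signal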
rRNA inh HTS RFP – also measured in rRNA inh HTS; calls as there; RFP signal change, %; measured here: RFP humanized mutant strains;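 first replicate; 0 = DMSO median and -100 = no signal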
Active calls of the source: *; i = inactive; ? = inconclusive; . = no result given.

| Structure | T cruzi inh | E coli growth | A1 inh | rRNA inh HTS | rRNA inh HTS OD600 | rRNA inh HTS RFP | UCH37 inh | Beta cell apopt | FGF22 binding | AF4-AF9 inh |
| --- | --- | --- | --- | --- | --- | --- | --- | --- | --- | --- |
| CCc1cccc2c(C(=O)CCl)c[nH]c12 | 3 | 0.66 | -0.3 | 1 | 1 | -1.3 | 6.8 | -21 | i | -0.9 |
| CCC(=O)Nc1ccc(NC(=O)CN2CCCC(C)C2)c(Cl)c1 (centres undefined) | 0 | 0.73 | 0.1 | . | . | . | 2.2 | -7 | . | . |
| Cc1cccc(OCc2occc2C(=O)Nc2cccc(-n3cnnn3)c2)c1 | 6 | 0.7 | -0.3 | 1 | 5 | 4.1 | 4.9 | 8 | i | -0.3 |
| CC(C)(C)NC(=O)C(c1ccccc1)N(C(=O)CNC(=O)c1cccs1)c1cccnc1 (centres undefined) | -1 | 0.69 | 0.2 | 4 | 10 | -2.8 | -0.8 | -5 | i | 0.6 |
| C=C(C)Cn1c(Sc2nc3ccccc3[nH]2)nc2c1c(=O)[nH]c(=O)n2C | -7 | 0.74 | 1.0 | . | . | . | 3.2 | 5 | . | . |
| Cc1ccc(SCCOCCN2CCc3ccccc3C2)cc1 | 61* | 0.64 | -0.2 | . | . | . | 2.5 | -10 | i | -0.3 |
| COc1ccccc1S(=O)(=O)Nc1cccc(S(=O)(=O)N2CCCC2)c1 | . | 0.68 | -0.9 | -6 | -13 | 2.3 | 1.4 | 1 | i | -33 |
| CCc1cccc(C)c1NC(=O)COC(=O)CC1CCCC1 | -8 | 0.68 | -0.8 | 0 | 1 | 2.3 | 5.4 | -4 | i | -2.6 |
| O=C(c1ccncc1)N1CCN(C(=O)c2cccc3ccccc23)CC1 | -4 | 0.74 | -0.9 | . | . | . | -0.8 | 3 | . | . |
| C=CCn1c(SCC(=O)Nc2ncc(Cc3cc(Cl)ccc3Cl)s2)nnc1-c1ccncc1 | 34 | 0.76 | 1.6 | . | . | . | 3.1 | 1 | . | . |
| Cc1cccc(C)c1NC(=O)COC(=O)c1ccccc1O | -8 | 0.68 | 0.3 | 10 | 11 | 0.8 | -3.0 | . | i | -2.0 |
| COc1ccc(CN2CCNC(=O)C2CC(=O)NCCc2nc(C)c(C)s2)cc1C (centres undefined) | 2 | 0.69 | -0.5 | 1 | 5 | -2.4 | -4.5 | -4 | i | -0.1 |
| O=C(OCCOCCN=C1NS(=O)(=O)c2ccccc21)c1ccccc1 | 1 | 0.68 | -0.1 | 1 | -2 | -1.5 | 3.6 | 1 | i | 0.5 |
| O=C(OCc1cc2ccccc2[nH]c1=O)C1CCCO1 (centres undefined) | -4 | 0.69 | 0.0 | . | . | . | -0.9 | 1 | . | . |
| O=C(NCc1ccncc1)C(=O)Nc1nc2ccccc2s1 | -8 | 0.63 | -0.2 | 18 | 11 | 0.7 | 4.2 | -3 | i | 0.6 |
| Cc1ccc(C(=O)NCCN2CCCC2)cc1 | 6 | 0.76 | -0.1 | . | . | . | 1.5 | -3 | . | . |
| COc1cccc(-n2c(CNC(=O)OC(C)(C)C)n[nH]c2=S)c1 | -7 | 0.69 | -0.3 | . | . | . | 0.1 | 5 | . | . |
| CCCCOc1cccc(NC(=O)CSc2nccn2C)c1 | 10 | 0.69 | -1.1 | . | . | . | 3.5 | -1 | . | . |
| CC1(C)C(c2ccccc2)=NC(c2ccccc2)N1O (centres undefined) | 12 | 0.64 | 1.5 | . | . | . | 3.4 | . | . | . |
| COc1ccc(C(=O)c2sc(Nc3ccccc3)nc2N)cc1 | 4 | 0.67 | -0.1 | -2 | 8 | -2.7 | 0.9 | . | i | -0.2 |
| CC(NC(=O)COC(=O)c1cc2ccccc2cc1O)c1ccccc1 (centres undefined) | . | 0.63 | . | 6 | 4 | 4.1 | 2.8 | . | i | -0.4 |
| CC(C)=Cc1oc2ccc([N+](=O)[O-])cc2c1N1CC(C)OC(C)C1 (centres undefined) | 12 | 0.72 | 0.2 | 8 | 17 | 4.5 | 4.2 | -4 | i | 0.8 |
| O=CNc1cc2c(cc1Br)-c1ccccc1C2O (centres undefined) | . | 0.66 | . | -11 | -36 | -4.5 | -0.4 | . | i | -1.1 |
| C=CCn1c(SCC(=O)N(C(C)CC)C2CCS(=O)(=O)C2)nc2ccccc2c1=O (centres undefined) | . | 0.69 | . | 2 | -6 | 2.5 | 6.0 | . | i | -1.5 |
| CN1CCC(=NNC(=O)CN(c2ccc([N+](=O)[O-])cc2)S(=O)(=O)c2ccccc2)CC1 | 13 | 0.67 | 0.3 | 1 | 9 | -1.0 | 4.5 | . | i | 2.4 |
| Cc1ccc(-n2nnnc2SCc2nc3sc(C)c(C)c3c(=O)[nH]2)cc1 | 4 | 0.69 | ? | . | . | . | -1.9 | -7 | . | . |
| Cc1ccc(-n2c([C@@H]3C[C@H]3c3ccccc3)n[nH]c2=S)cc1 | -22 | 0.65 | 0.1 | -1 | 8 | -2.7 | 5.2 | -2 | i | -47 |
| O=C(Nc1ccc(Cl)cc1)N1CCN(c2ncccn2)CC1 | -7 | 0.68 | 0.5 | 4 | 7 | 0.4 | 0.7 | -3 | i | -4.5 |
| CC(Oc1ccc(Cl)cc1Cl)C(=O)/C=C/N(C)C (centres undefined) | -16 | 0.65 | 0.4 | . | . | . | 2.8 | -5 | . | . |
| NC(=O)c1nn(-c2cccc(Cl)c2)c(=O)cc1O | -9 | 0.73 | 1.3 | . | . | . | -0.3 | -3 | . | . |
| N#Cc1c(NC(=O)COC(=O)c2ccc(O)cc2O)sc2c1CCC2 | . | 0.69 | 0.1 | 4 | 0 | 0.6 | 4.0 | -3 | i | -3.6 |
| O=C(c1ccc(F)cc1)n1c(NCc2ccccc2)n[nH]c1=S | 10 | . | -0.3 | 12 | 23 | 16 | . | -2 | i | -3.1 |
| Brc1cccc(/C=N/Nc2nn[nH]n2)c1 | -2 | . | 1.5 | -12 | -6 | -1.5 | . | -5 | i | -1.3 |
| O=C(NC(=S)Nc1ccccc1OC(F)F)c1ccc2c(c1)OCO2 | . | 0.76 | -1.2 | 6 | 3 | 4.6 | 3.3 | 6 | i | 3.3 |
| CCOc1ccccc1/C=N/n1c(C)nc2ccccc2c1=O | 13 | . | 0.4 | 11 | 6 | -10 | . | -5 | i | -1.5 |
| O=c1c2c(-c3cccs3)csc2ncn1/N=C/c1ccccn1 | 8 | . | 0.0 | 3 | 7 | -2.8 | . | 2 | i | 1.4 |

Grouped by structure, the compounds so far containing fluorine.
| Structure | T cruzi inh | E coli growth | A1 inh | rRNA inh HTS | rRNA inh HTS OD600 | rRNA inh HTS RFP | UCH37 inh | Beta cell apopt | FGF22 binding | AF4-AF9 inh |
| --- | --- | --- | --- | --- | --- | --- | --- | --- | --- | --- |
| O=C(c1ccc(F)cc1)n1c(NCc2ccccc2)n[nH]c1=S | 10 | . | -0.3 | 12 | 23 | 16 | . | -2 | i | -3.1 |
| O=C(NC(=S)Nc1ccccc1OC(F)F)c1ccc2c(c1)OCO2 | . | 0.76 | -1.2 | 6 | 3 | 4.6 | 3.3 | 6 | i | 3.3 |

(more compounds)
| Structure | T cruzi inh | E coli growth | A1 inh | rRNA inh HTS | rRNA inh HTS OD600 | rRNA inh HTS RFP | UCH37 inh | Beta cell apopt | FGF22 binding | AF4-AF9 inh |
| --- | --- | --- | --- | --- | --- | --- | --- | --- | --- | --- |
| O=C(COC(=O)C1=COCCO1)Nc1cc(S(=O)(=O)N2CCCCC2)ccc1Cl | 5 | 0.69 | 2.1 | 0 | -2 | 0.3 | 4.4 | 8 | i | -0.4 |
| Cc1ccc(CNC(=O)C(=O)NCC2CCCO2)cc1 (centres undefined) | 0 | 0.73 | 0.9 | . | . | . | 1.5 | -6 | . | . |
| CCN(Cc1ccccc1)C(=O)COC(=O)[C@@H]1CCCN1C(=O)c1cccs1 | . | 0.63 | 0.0 | -2 | -10 | -9.7 | 0.5 | -5 | i | 1.3 |
| COc1ccc(C(CNC(=O)C2COc3ccccc3O2)N2CCCC2)cc1 (centres undefined) | . | 0.7 | -1.9 | . | . | . | 2.1 | 1 | i | -2.6 |
| COC(=O)C1C2C=CC3(CN(CCc4ccccc4)C(=O)C13)O2 (centres undefined) | -10 | 0.69 | 0.4 | . | . | . | 1.5 | -6 | . | . |
| O=C(Nc1ccc2ccccc2c1)N1CCN(c2ncccc2C(F)(F)F)CC1 | -10 | 0.68 | -0.2 | . | . | . | 0.1 | 3 | . | . |
| CC(C)COC(=O)NCC12C=CC(O1)C1C(=O)N(c3ccc(Cl)cc3)C(=O)C12 (centres undefined) | -8 | 0.74 | -1.0 | . | . | . | 5.3 | -16 | . | . |
| Cc1ccc(NS(=O)(=O)N2CCOCC2)cc1Cl | -5 | 0.62 | -1.2 | -1 | -4 | 2.4 | 2.8 | . | i | 0.4 |
| CC(C)(C)C(=O)NC1CC2CCCC(C1)N2C(=O)Nc1cccc(Cl)c1 (centres undefined) | 4 | 0.67 | 0.1 | 6 | 7 | -1.8 | 3.9 | 0 | i | 1.5 |
| CSCCC(NC(N)=O)C(=O)N(C)CC(=O)Nc1cc(C)ccc1C (centres undefined) | 0 | 0.7 | -0.3 | . | . | . | 0.6 | 0 | . | . |
| COC(=O)CCCC1=CC2=CC(=O)C(C)(OC(=O)c3cccs3)C(=O)C2=CN1CCCCO (centres undefined) | 3 | 0.67 | 0.8 | 8 | 14 | 6.8 | 6.7 | -5 | i | . |
| CCC(Sc1nc(-c2ccccc2)c(C#N)c(=O)[nH]1)C(=O)Nc1cc(C)on1 (centres undefined) | 0 | 0.68 | 0.7 | . | . | . | 6.3 | . | . | . |
| CC(C)c1nc2oc3ccccc3c(=O)c2c(=O)n1-c1ccccc1 | 21 | 0.69 | 0.1 | . | . | . | 3.0 | 5 | . | . |
| CCOc1ccc2nc3c(cc2c1)CN(CCOC)C(=NC)S3 | 5 | 0.66 | 0.3 | . | . | . | 1.6 | 5 | . | . |
| Cn1c(NC(=O)C[n+]2cc(-c3ccc(F)cc3)n3c2CCC3)cc(=O)n(C)c1=O | 3 | 0.65 | -1.1 | . | . | . | 4.2 | -1 | . | . |
| O=C(NCCCn1ccnc1)c1cccc(S(=O)(=O)Nc2ccc(F)cc2)c1 | . | 0.61 | . | 8 | 8 | 0.4 | 2.2 | . | i | -1.2 |
| Cc1cccc2cc(C(c3nnnn3C(C)(C)C)N3CCN(C(=O)c4ccco4)CC3)c(=O)[nH]c12 (centres undefined) | -15 | 0.7 | 1.7 | . | . | . | -1.7 | -3 | . | . |
| Cc1ccc(C(=O)O)cc1-c1ccc(/C=C2\SC(=O)N(CC(=O)Nc3ccccc3)C2=O)o1 | -3 | 0.68 | 0.9 | 6 | -15 | 7.0 | -4.7 | -5 | i | -4.8 |
| CCCOc1ccc([N+](=O)[O-])cc1C1NC(=S)NC(c2ccccc2)=C1C(=O)OCC (centres undefined) | 43 | 0.75 | 0.8 | . | . | . | -2.3 | 10 | . | . |
| COc1nc(OCCNS(=O)(=O)c2ccc(C)cc2)nc(N(C)C)n1 | -13 | 0.69 | 0.6 | 0 | -4 | -6.0 | 4.1 | -2 | i | -7.2 |

Not all compounds are listed (hit frequency here may not be typical).
